AF4-AF9 inh: inhibitors of human MLL-AF4/AF9 interaction; AlphaScreen, biotin-AF4 peptide binding to FLAG-AF9; inhibition, % at 10 µM; 350,000 compounds, 0.47% hits;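 active = every replicate reaching a set inhibition limit, whatever the replicate mean, cut at about 25% in these data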;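 also: 0% = plate neutral control median and 100% = total signal loss; the record names both 10 and 1 µM as test concentration; the first replicate is given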
Target sequence (P42568 whole entry, looked up): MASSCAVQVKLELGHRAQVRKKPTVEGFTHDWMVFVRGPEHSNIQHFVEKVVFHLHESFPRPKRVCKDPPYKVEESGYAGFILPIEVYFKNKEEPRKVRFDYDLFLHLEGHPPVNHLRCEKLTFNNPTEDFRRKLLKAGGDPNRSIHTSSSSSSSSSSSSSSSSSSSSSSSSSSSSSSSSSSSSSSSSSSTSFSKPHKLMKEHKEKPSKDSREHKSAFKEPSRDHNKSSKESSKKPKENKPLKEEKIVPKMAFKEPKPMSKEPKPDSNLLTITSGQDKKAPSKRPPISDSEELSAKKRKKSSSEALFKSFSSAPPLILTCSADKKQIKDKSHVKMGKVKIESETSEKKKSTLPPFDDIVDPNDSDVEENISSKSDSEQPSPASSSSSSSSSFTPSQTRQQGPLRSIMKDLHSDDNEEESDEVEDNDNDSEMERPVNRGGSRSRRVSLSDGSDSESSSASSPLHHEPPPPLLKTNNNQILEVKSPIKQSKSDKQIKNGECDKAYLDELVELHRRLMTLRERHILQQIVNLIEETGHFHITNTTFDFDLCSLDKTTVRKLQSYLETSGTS
Active calls of the source: *; & = joins results of further samples. The list is partial. The share of hits here may be higher or lower than overall.

SMILES	AF4-AF9 inh
COCC(=O)Nc1ccc2c(c1)C(=O)N(C)C[C@H](OC)[C@@H](C)CN(Cc1ccncc1)[C@H](C)CO2	-0.6
CN(C)CCCNC(=O)C[C@H]1C=C[C@@H](NS(=O)(=O)c2ccc(F)cc2)[C@H](CO)O1	-2.2
C[C@H](CO)N1C[C@H](C)[C@H](CN(C)Cc2ccccc2)Oc2ncc(Br)cc2C1=O	-1.4&4.9&-16.8&1.6
CN(C(=O)COC(=O)c1cc([N+](=O)[O-])ccc1N1CCOCC1)C1CCCCC1	3.3
Cc1onc(-c2ccccc2)c1C(=O)N1CCN(C(=O)C(=O)c2cccc(C(F)(F)F)c2)CC1	-0.6
COc1ccccc1CN1[C@H](CO)[C@@H]2c3ccccc3N(C(=O)c3cccnc3)C[C@@H]21	-10.1
CC(C)NC(=O)NCC[C@H]1CC[C@H](NC(=O)c2ccc(F)cc2)[C@@H](CO)O1	5.3
CC=Cc1ccc2n(c1=O)C[C@@H]1[C@@H](CO)[C@H](C(=O)NCCC)N(CCC(F)(F)F)[C@H]21 (mixture of isomers)	-2.9
CO[C@@H]1CN(C)C(=O)c2ccc(NC(=O)C3CC3)cc2OC[C@@H](C)N(Cc2ccccc2)C[C@H]1C	-0.8
O=[N+]([O-])c1ccc2c(c1)CCO[C@@]21O[C@H](CCO)C[C@H](O)[C@H]1O	-3.4
C[C@@H]1CN([C@@H](C)CO)C(=O)c2cc(NC(=O)CCCCCC(=O)Nc3ccccc3N)ccc2O[C@H]1CN(C)C(=O)Nc1ccccc1	0.6
COc1ccc(C(O)c2ncc(-c3ccccc3Cl)[nH]2)cc1F (stereo not given)	5.7
Cc1cccc(NC(=O)Nc2ccc3c(c2)C(=O)N(C)[C@H]2CC[C@H](CC(=O)NCc4ccccc4Cl)O[C@@H]2CO3)c1	-0.5
COc1ccccc1C#Cc1ccc2c(c1)O[C@H](CN(C)Cc1cccnc1)[C@H](C)CN([C@@H](C)CO)S2(=O)=O	2.9
C[C@@H]1CCCCO[C@H](CN(C)S(C)(=O)=O)[C@@H](C)CN([C@@H](C)CO)C(=O)c2cc(NC(=O)Nc3ccc4c(c3)OCO4)ccc2O1	3.8
O=C(NCC1CC1)[C@@H]1[C@@H](CO)[C@@H]2Cn3c(ccc(-c4cccnc4)c3=O)[C@@H]2N1C(=O)NC1CCCC1	-2.2
C[C@@H]1CN([C@H](C)CO)C(=O)Cc2cc(NC(=O)c3ccncc3)ccc2O[C@H]1CN(C)S(=O)(=O)c1cccs1	-0.9
C[C@H](CO)N1C[C@H](C)[C@H](CN(C)CC2CC2)Oc2c(NC(=O)c3ccc(-c4nccs4)cc3)cccc2C1=O	-4.1
COc1cccc(C(=O)Nc2ccc3c(c2)C(=O)N(C)[C@@H]2CC[C@@H](CC(=O)NCCCN4CCOCC4)O[C@@H]2CO3)c1	-0.9
Cc1ccc(-c2nc3cc(C)c(Br)c(C)n3c2CC(C)(C)C)cc1	-3.2
C[C@@H]1CCCCO[C@H](CN(C)C)[C@H](C)CN([C@H](C)CO)C(=O)c2cc(NC(=O)c3ccncc3)ccc2O1	3.6
C[C@@H]1CN([C@@H](C)CO)S(=O)(=O)c2ccc(C3=CCCC3)cc2O[C@@H]1CN(C)Cc1ccccc1F	3.8
CC(C)NC(=O)N(C)C[C@@H]1Oc2cc(C#Cc3ccccn3)ccc2S(=O)(=O)N([C@@H](C)CO)C[C@@H]1C	-5.0
C[C@H]1CN([C@@H](C)CO)C(=O)c2cc(NS(=O)(=O)c3cccs3)ccc2O[C@@H]1CN(C)C(=O)Nc1cccc2ccccc12	1.6
O=C(NC(Cc1c[nH]c2ccccc12)C(=O)O)c1cccc(S(=O)(=O)N2CCCCC2)c1 (stereo not given)	-1.0
CN1C(=O)c2cc(NC(=O)Cc3cccs3)ccc2OC[C@H]2O[C@H](CC(=O)NCCc3ccncc3)CC[C@H]21	-5.1
O=C(NCC1CCCCC1)[C@H]1[C@H](CO)[C@H]2Cn3c(ccc(C4=CCCCC4)c3=O)[C@@H]1N2	-1.3
CCN1[C@@H]2c3ccc(-c4cncnc4)c(=O)n3C[C@@H]2[C@@H](CO)[C@@H]1C(=O)OC	0.6
COc1ccc(S(=O)(=O)N(C)C[C@H]2Oc3c(NS(=O)(=O)c4ccc(C)cc4)cccc3C(=O)N([C@@H](C)CO)C[C@@H]2C)cc1	0.8
COc1ccc(CN(C)C[C@H]2OCCCC[C@@H](C)Oc3ccc(NC(=O)CCCN(C)C)cc3C(=O)N([C@@H](C)CO)C[C@H]2C)cc1	6.6
COc1ccc(CN(C)C[C@@H]2OCCCC[C@H](C)Oc3ccc(NS(=O)(=O)c4ccc(Cl)cc4)cc3C(=O)N([C@H](C)CO)C[C@H]2C)cc1	6.1
CCCNC(=O)N(C)C[C@@H]1Oc2cc(-c3cncnc3)ccc2S(=O)(=O)N([C@H](C)CO)C[C@H]1C	-8.8
CNC(=O)C[C@H]1CC[C@@H]2[C@@H](COc3ccc(NC(=O)Nc4ccc(F)c(F)c4)cc3C(=O)N2C)O1	2.6
C[C@H](CO)N1C[C@H](C)[C@@H](CN(C)C(=O)C2CCOCC2)Oc2ncc(-c3ccncc3)cc2C1=O	-2.5
CC(C)CC#Cc1ccc2c(c1)O[C@H](CN(C)C(=O)CN(C)C)[C@@H](C)CN([C@H](C)CO)S2(=O)=O	3.2
CC(C)CC#Cc1ccc2c(c1)O[C@H](CN(C)Cc1ccccn1)[C@H](C)CN([C@@H](C)CO)S2(=O)=O	7.0
CCC(=O)N1[C@@H]2c3ccc(/C=C/c4ccccc4)c(=O)n3C[C@@H]2[C@@H](CO)[C@@H]1C(=O)Nc1nccs1	-7.2
Cc1ccc(S(=O)(=O)N(C)C[C@H]2OCCCC[C@H](C)Oc3ccc(NS(=O)(=O)c4ccc(F)cc4)cc3C(=O)N([C@H](C)CO)C[C@H]2C)cc1	-0.7
C[C@@H]1CN([C@@H](C)CO)C(=O)c2cc(-c3ccc(F)cc3)cnc2O[C@@H]1CN(C)C(=O)C1CCC1	-3.0
C[C@@H](NC(=O)[C@@H]1[C@@H](CO)[C@@H]2Cn3c(cccc3=O)[C@@H]2N1CCC(F)(F)F)c1ccccc1	0.1
C[C@@H]1CN([C@@H](C)CO)C(=O)c2c(c3ccccc3n2C)-c2ccccc2CO[C@@H]1CN(C)Cc1ccc(O)cc1	2.0
C[C@H](CO)N1C[C@H](C)[C@@H](CN(C)C(=O)Nc2ccc(F)cc2)Oc2c(NS(=O)(=O)c3ccc(F)cc3)cccc2C1=O	-2.5
C/C=C/c1ccc2c(c1)O[C@@H](CN(C)C(=O)c1cccc(F)c1)[C@@H](C)CN([C@H](C)CO)S2(=O)=O	4.1
Cc1ccc(S(=O)(=O)N(C)C[C@H]2Oc3ccc(NS(=O)(=O)c4c(C)noc4C)cc3C(=O)N([C@@H](C)CO)C[C@@H]2C)cc1	-2.3
C[C@@H]1CN([C@H](C)CO)C(=O)c2cc(NC(=O)CCCN(C)C)ccc2O[C@H]1CN(C)Cc1ccc(C(F)(F)F)cc1	0.4
C[C@H]1CN([C@@H](C)CO)C(=O)c2cccc(NC(=O)c3cnccn3)c2O[C@H]1CN(C)Cc1ccncc1	-2.4
O=C(N[C@H]1CC[C@H](CCNC(=O)C2CC2)O[C@@H]1CO)c1ccccn1	-4.1
CC(C)NC(=O)N1CC[C@@H]2[C@H]1c1cc(-c3ccc(F)cc3)ccc1N(C)[C@@H]2CO	1.2
C[C@@H]1CN([C@H](C)CO)C(=O)c2c(c3ccccc3n2C)-c2ccccc2CO[C@@H]1CN(C)CC1CC1	-3.7
C[C@@H]1CN([C@H](C)CO)C(=O)c2cc(NC(=O)Nc3ccc(F)cc3)ccc2O[C@@H]1CN(C)C(=O)Nc1cccc2ccccc12	-1.3

Continuation:
SMILES	AF4-AF9 inh
CC(=O)N(C)C[C@@H]1Oc2cc(-c3ccc(F)cc3)ccc2S(=O)(=O)N([C@H](C)CO)C[C@@H]1C	-0.2
CNC[C@@H]1Oc2ccc(NC(=O)C3CCCCC3)cc2C(=O)N([C@H](C)CO)C[C@H]1C	-0.5
CN(C)CC(=O)N1[C@@H]2Cn3c(ccc(C4=CCCC4)c3=O)[C@H]1[C@@H](C(=O)NCC1CCCCC1)[C@@H]2CO	-2.0
COc1ccc(C#Cc2cccc(-c3nc(C(=O)N4CCN(C)CC4)cc4c3[C@@H](CCO)N(S(=O)C(C)(C)C)C4)c2)cc1OC (stereo not given in full)	2.1
CC(C)C#Cc1ccc([C@H]2[C@H](C#N)N(C(=O)c3ccccn3)[C@H]2CO)cc1	-4.6
C[C@@H]1CCCCO[C@@H](CN(C)C(=O)Nc2ccc(C(F)(F)F)cc2)[C@H](C)CN([C@H](C)CO)C(=O)c2cc(NC(=O)Nc3cccc4ccccc34)ccc2O1	-0.5
CCCNC(=O)N[C@@H]1CC[C@H](CCn2cc(C3CCCC3)nn2)O[C@H]1CO	-2.1
O=C(NC1CCCCC1)C(c1cccc2ccccc12)n1c(=O)c(-c2ccco2)nc2ccccc21 (stereo not given)	2.7
CSc1nc2c(=S)[nH]c(=S)[nH]c2s1	-2.7
O=C(Nc1ccccc1F)N1C[C@@H]2[C@H](c3ccccc31)[C@H](CO)N2C(=O)C1CCOCC1	-5.9

2 consecutive entries from above, quoted:
SMILES	AF4-AF9 inh
CSc1nc2c(=S)[nH]c(=S)[nH]c2s1	-2.7
O=C(Nc1ccccc1F)N1C[C@@H]2[C@H](c3ccccc31)[C@H](CO)N2C(=O)C1CCOCC1	-5.9

Continued.
SMILES	AF4-AF9 inh
C[C@@H]1CN([C@@H](C)CO)C(=O)Cc2cc(NC(=O)Nc3ccc(F)cc3)ccc2O[C@H]1CN(C)C(=O)Nc1ccc(F)cc1	1.3
CCOC(=O)C1=CCN(S(=O)(=O)c2ccccc2Br)C1c1ccc(F)cc1 (stereo not given)	-2.0
O=C(C[C@H]1C[C@H]2c3cc(NC(=O)CC4CC4)ccc3O[C@H]2[C@@H](CO)O1)NCc1ccc(-c2ccccc2)cc1	-1.0
CCCC(=O)Nc1ccc2c(c1)OC[C@H](C)N(Cc1ccccc1F)C[C@H](C)[C@H](OC)CN(C)C2=O	-6.0
CN(C)C(=O)C[C@H]1CC[C@H]2[C@@H](COC[C@@H](O)CN2Cc2nccs2)O1	-6.2
CO[C@@H]1CN(C)C(=O)c2ccc(NC(=O)c3ccccc3F)cc2OC[C@@H](C)N(CC2CCOCC2)C[C@H]1C	1.6
NCC[C@@H]1CC[C@@H](NC(=O)C2CCCCC2)[C@@H](CO)O1	1.1
COc1ccc(NC(=O)CSc2nnc(C)s2)cc1S(=O)(=O)N1CCOCC1	0.4
COc1ccc(S(=O)(=O)N2CCOCC2)cc1NC(=O)C1CCCCN1S(=O)(=O)c1ccccc1 (stereo not given)	0.8
O=C(C[C@H]1CC[C@H](NC(=O)c2ccccc2)[C@H](CO)O1)NCCc1ccncc1	-1.0
CCN1C[C@@H]2[C@@H]3C(=O)N(C)C(=O)[C@@H]3[C@](CC)(C1=O)N2C(=O)c1ccc(F)cc1	0.3
O=C(NC(c1ccccc1)c1ccsc1)C1CCN(Cc2ccc(Oc3ccccc3)cc2)CC1 (stereo not given)	-0.1
N#C[C@H]1[C@@H](c2ccccc2C2=CCCC2)[C@H](CO)N1C(=O)c1cccc(F)c1	-2.7
O=C(Nc1ccccc1)N1CCCCN2[C@H](C1)[C@@H](c1ccc(-c3ccccc3)cc1)[C@@H]2CO	-0.6
COc1ccc(NC(=O)Nc2ccc3c(c2)C(=O)N([C@@H](C)CO)C[C@H](C)[C@H](CN(C)C(=O)Nc2c(C)noc2C)O3)cc1	-4.3
COc1ccc(S(=O)(=O)N(C)C[C@H]2Oc3cc(C#CC4CC4)ccc3S(=O)(=O)N([C@H](C)CO)C[C@H]2C)cc1	2.9
CCC(=O)N1CC(=O)N2[C@H](C1)[C@@H](c1ccc(C#CC3CCCC3)cc1)[C@@H]2CO	-0.4
CCCC(=O)Nc1ccc2c(c1)OC[C@H](C)N(CC1CCCC1)C[C@@H](C)[C@H](OC)CN(C)C2=O	-0.8
Cc1noc(C)c1S(=O)(=O)N(C)C[C@@H]1OCCCC[C@@H](C)Oc2ccc(NS(=O)(=O)c3cccs3)cc2C(=O)N([C@@H](C)CO)C[C@H]1C	4.4
COc1ccccc1C(=O)Nc1ccc2c(c1)C(=O)N(C)C[C@@H](OC)[C@@H](C)CN[C@@H](C)CO2	-2.0

Given with each value named: entries from further up.
N#C[C@H]1[C@@H](c2ccccc2C2=CCCC2)[C@H](CO)N1C(=O)c1cccc(F)c1
  AF4-AF9 inh = -2.7
O=C(Nc1ccccc1)N1CCCCN2[C@H](C1)[C@@H](c1ccc(-c3ccccc3)cc1)[C@@H]2CO
  AF4-AF9 inh = -0.6
COc1ccc(NC(=O)Nc2ccc3c(c2)C(=O)N([C@@H](C)CO)C[C@H](C)[C@H](CN(C)C(=O)Nc2c(C)noc2C)O3)cc1
  AF4-AF9 inh = -4.3
COc1ccc(S(=O)(=O)N(C)C[C@H]2Oc3cc(C#CC4CC4)ccc3S(=O)(=O)N([C@H](C)CO)C[C@H]2C)cc1
  AF4-AF9 inh = 2.9

New compounds follow
SMILES	AF4-AF9 inh
c1ccc(-c2nnc3nc(N4CCCCC4)nc(N4CCCCC4)n23)cc1	-5.6
CC(C)(C)C(=O)N1CCN(c2ccc3c(c2)C2CC3CCN2C(=O)OCc2ccccc2)CC1 (stereo not given)	6.2
CC(C)CC#Cc1ccc2c(c1)O[C@@H](CN(C)C(=O)NC(C)C)[C@@H](C)CN([C@H](C)CO)S2(=O)=O	-0.6
CCCCNC(=O)C1c2ccccc2OCC(=O)N1CCc1c[nH]c2ccccc12 (stereo not given)	2.1
